GIV Gai3 FP – blocks GIV peptide binding to rat Galpha-i3. P08753. Galpha-i3/FITC-GIV peptide fluorescence polarization, 90 min; stronger effect = lower value; scaled: aluminum fluoride 0%, vehicle 100%. percent of control (FP), % (concentration not given with the values). 210,000 compounds, 0.42% hits;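 active = replicate mean at 85% of control or lower, very high polarization wells dropped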;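 note: wells of about 15 µL received 100 nL stock; the first replicate is given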
Target sequence (P08753 whole entry, looked up): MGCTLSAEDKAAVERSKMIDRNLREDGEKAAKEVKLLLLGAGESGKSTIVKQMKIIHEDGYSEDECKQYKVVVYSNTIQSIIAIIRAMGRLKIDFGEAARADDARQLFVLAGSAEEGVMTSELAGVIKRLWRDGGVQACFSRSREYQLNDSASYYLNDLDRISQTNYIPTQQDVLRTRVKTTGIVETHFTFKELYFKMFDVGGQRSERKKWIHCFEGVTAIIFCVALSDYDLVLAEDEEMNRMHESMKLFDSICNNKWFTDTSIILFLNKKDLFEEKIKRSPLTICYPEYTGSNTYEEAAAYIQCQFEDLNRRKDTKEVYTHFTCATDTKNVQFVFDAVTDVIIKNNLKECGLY
The depositor's hits bear a star. The list is partial (hit frequency here may not be typical).

#	SMILES	GIV Gai3 FP
1	Cc1ccc(C2(O)CN(c3ccccc3C)C3=[N+]2CCCC3)cc1 (stereo not given)	108
2	CCCN1C(SCC(=O)Nc2ccc(C)c(C)c2)=NS(=O)(=O)c2ccccc21	102
3	CC(=O)Nc1nc(-c2ccc(C(C)C)cc2)nc2c1c(=O)oc1ccccc12	103
4	COc1ccc(CCn2c(SCC(=O)NCCc3ccc(S(N)(=O)=O)cc3)nc3ccccc3c2=O)cc1OC	106
5	O=C(C1CCN(c2ncnc3c2oc2ccccc23)CC1)N1CCOCC1	109
6	Cc1cc(C)c2c(=O)n(Cc3nc(-c4ccccc4C)oc3C)c(=O)n(-c3ccccc3)c2n1	103
7	O=C(Nc1ccc2c(c1)OCCO2)N1CCN(Cc2cc(=O)n3nc(-c4ccccc4F)sc3n2)CC1	96
8	CCN(CC)c1cc(C)nc(NCc2ccccc2)n1	98
9	CCN(CC)c1ccc(C2Nc3ccc4ncccc4c3C3=C2C(=O)CCC3)cc1 (stereo not given)	99
10	CC(C)(C)OC(=O)N1CC=C2C(C#N)=C(N)C(C#N)(C#N)C(c3ccoc3)C2C1 (stereo not given)	149
11	CCOc1ccccc1OC(=O)c1cc2c(C)nn(-c3ccc(F)cc3)c2s1	104
12	COC(=O)c1cc(Nc2ncnc3c2cnn3-c2cccc(C)c2)cc(C(=O)OC)c1	101
13	O=C(Nc1ccccc1F)c1ccc2c(c1)OCCCO2	107
14	COC(=O)c1cc(N2C(=O)/C(=C/c3ccc(-c4cc(Cl)ccc4Cl)o3)C=C2c2ccccc2)ccc1Cl	116
15	O=C(NC1CCCC1)C1CCN(Cc2noc(-c3ccc(F)cc3)n2)CC1	106
16	Cc1nc2c(C(=O)N3CCN(c4ccccn4)CC3)cnn2c(C)c1Cc1ccccc1Br	101
17	COC(=O)c1c(C(C)(C)C)oc2c1cc(NS(=O)(=O)c1ccc(Cl)cc1)c1ccccc12	107
18	Cc1ccc(NC(=O)C2CC2(c2ccccc2)c2ccccc2)cc1C (stereo not given)	109
19	Cc1ccc(C(=O)NC(C)C)cc1NC(=O)c1nsc2ccccc12	101
20	COc1ccc(N2C(=O)C(N3C(=O)c4ccccc4C3=O)C2c2ccc(F)cc2)cc1 (stereo not given)	124
21	CC(C)COC(=O)c1ccc(N2C(=O)C3C4c5ccccc5C(c5ccccc54)C3C2=O)cc1 (stereo not given)	111
22	Cc1cc(C2CC(=O)Nc3c2c(C)nn3-c2nc3ccccc3[nH]2)c(C)s1 (stereo not given)	104
23	O=C(COc1ccc(F)cc1)N1CCOc2ccc(COCc3cccc(F)c3)cc2C1	99
24	CNC(=O)c1ccc(-c2nc3cc(NS(=O)(=O)c4cnc[nH]4)ccc3n2C)cc1	102
25	Cc1ccc(NC(=O)c2cccc(-n3cnnc3)n2)cc1	97
26	O=S(=O)(c1cccs1)N1CCC2(CC1)NCCN=C2NCc1ccc(Cl)cc1	106
27	Cc1cc(NC(=O)CCc2nc(CSc3nc4ccccc4[nH]3)no2)ccc1Br	104
28	CCSc1nc2ccc(NS(=O)(=O)Cc3cc(F)cc(F)c3)cc2s1	101
29	CC1CCC2(CC1)NCCN=C2NCc1cc(F)cc(F)c1 (stereo not given)	100
30	COc1cccc(-n2c(=S)sc3c(=O)[nH]c(SCC(=O)N4CCCC4)nc32)c1	108
31	COc1ccc(C2CC(=O)Nc3c2cnn3-c2ccc3nnc(C)n3n2)cc1OC (stereo not given)	99
32	O=C(Nc1ccc(N2CCN(Cc3ccc4c(c3)OCO4)CC2)c(C(=O)O)c1)c1ccc(F)cc1	105
33	O=C1CSC(c2cc3c(cc2Br)OCO3)N1c1ccc(F)cc1 (stereo not given)	105
34	CCn1cc(S(=O)(=O)N2CCCn3nc(-c4ccc(OC)cc4)cc3C2)cn1	104
35	COc1ccc(-c2nnc3ccc4ccccc4n23)cc1OC	109
36	O=C1c2[nH]nc(-c3ccccc3)c2C(c2ccc(Cl)cc2)N1c1cccc(C(F)(F)F)c1 (stereo not given)	104
37	O=C(Cn1c(=O)n2nc(-c3ccc(F)cc3)nc2c2ccccc21)N1CCN(c2ccc(F)cc2)CC1	95
38	Cc1nn(-c2ccccc2)c(N2CCC(C(=O)NC(C)C)CC2)c1NC(=O)C(C)C	105
39	C=CCn1c(SCC(=O)NC2CCCCC2)nnc1-c1cc2ccccc2o1	103
40	CCc1ccccc1NC(=O)CSc1nc2cc(C(=O)NCc3ccco3)ccc2c(=O)n1Cc1ccco1	113
41	Cn1c(SCC(=O)Nc2nnc(C(F)(F)F)s2)nnc1-c1cc2ccccc2o1	113
42	COc1ccc([N+](=O)[O-])cc1N(CC(O)CN(Cc1ccccc1)Cc1ccccc1)S(=O)(=O)c1ccccc1 (stereo not given)	111
43	COc1ccc2c(c1OC)C(=O)N1N=C(c3ccc(Br)cc3)CC21 (stereo not given)	101
44	CCCCN(C)C(=O)CN(C)S(=O)(=O)c1cc2c(cc1C)NC(=O)C(C)O2 (stereo not given)	104
45	CC1(C)Cc2ccccc2-c2[nH]c(=S)[nH]c(=O)c21	108
46	COC(=O)c1sccc1NC(=O)N1CCCC1c1cc(C(C)C)on1 (stereo not given)	98
47	Cn1cnc2cc(-c3noc(-c4ccc(Cl)cc4)n3)ccc21	99
48	COc1ccc(C2NC(C(=O)O)Cc3c2[nH]c2ccccc32)c(OC)c1 (stereo not given)	102
49	COc1ccc(S(=O)(=O)Nc2ccc(C(=O)N3CCCC(C(=O)NC(C)C)C3)cc2)cc1 (stereo not given)	106
50	CC(C)CNC(=O)CCn1c(=O)c2ccccc2n2c(SCC(=O)NC3CCCCC3)nnc12	103
51	Cc1nc(-c2csc(S(=O)(=O)N3CCC(C(=O)NCc4ccccn4)CC3)c2)no1	106
52	CC(C)(C)c1ccc(Sc2cc3c(c(N4CCCCC4)c2)C(=O)c2ccccc2C3=O)cc1	109
53	CCOC(=O)C1=CN(C(C)C)C=C(C(=O)OCC)C1c1cc(Br)c(OC)c(OC)c1	106
54	COc1cc(C2CC(c3ccco3)=Nc3ccccc3S2)cc(OC)c1OC (stereo not given)	111
55	Cc1c(-c2nc(-c3ccc(NC(=O)c4ccco4)cc3)no2)cccc1[N+](=O)[O-]	103
56	CCn1c(C)c(CN2CCC(C(=O)NCc3ccccc3C)CC2)c2ccccc21	102
57	CC(C)c1cc(C2CCCN2Cc2ccc(Br)s2)on1 (stereo not given)	103
58	COc1cccc2cc(C(=O)NCc3ccco3)c(=Nc3ccc(C(=O)O)cc3)oc12	114
59	O=C(NC1CCCCC1)c1cc(NS(=O)(=O)c2ccc(Cl)cc2)cnc1N1CCNCC1	104
60	CCOC(=O)c1cnc2c(OC)cccc2c1Nc1cc(Cl)c(OC)cc1OC	121

Further structures:
#	SMILES	GIV Gai3 FP
61	CCOc1ccc(-n2nnc3c(N4CCN(C(=O)CCC5CCCC5)CC4)ncnc32)cc1	101
62	COC(=O)c1cccc(C(=O)N2CCc3ccccc3C2)n1	105
63	Cc1onc(-c2ccccc2)c1C(=O)Nc1sc2c(c1C#N)CCC(C)C2 (stereo not given)	108
64	O=C1c2ccccc2SC(c2ccc([N+](=O)[O-])cc2)N1Cc1ccccc1 (stereo not given)	104
65	CN(C)c1nc(Nc2ccc(Cl)cc2)c2cnn(-c3ccccc3)c2n1	98
66	Cn1cnc2c1c(=O)n(Cc1ccc(Cl)cc1)c(=O)n2C	106
67	CCOC(=O)C1=C(C)OC(N)=C(C#N)C1c1cccc(C(F)(F)F)c1 (stereo not given)	100
68	Cc1nn(-c2ccc3nnc(C)n3n2)c(C)c1CCC(=O)NCCC1=CCCCC1	112
69	COc1ccccc1Oc1cc(-c2cccc(C(=O)NC3CCCc4ccccc43)c2)ncn1 (stereo not given)	105
70	Cc1cccc(Cn2cc(C(=O)Nc3ccc(Br)cc3)ccc2=O)c1	101
71	COc1cccc(C2C(N3C(=O)c4ccccc4C3=O)C(=O)N2c2ccc(C)cc2)c1 (stereo not given)	110
72	Cc1cc(/C=C2\SC(=O)N(C)C2=O)c(C)n1-c1ccc(Br)cc1F	114
73	Cc1cc(C)n(-c2nnc(N3CCN(c4cccc(Cl)c4)CC3)c3ccccc23)n1	121
74	O=[N+]([O-])c1ccc(Nc2nc(NCCN3CCOCC3)nc(N3CCCC3)n2)cc1	105
75	O=C(c1cn2c(n1)CCCC2)N1CCC2(CC1)OCCO2	99
76	Cc1cn(C)c(CC(=O)N2CCC(N3CCCCC3)CC2)c1C(=O)O	101
77	COc1cc(-c2nc3c4ccccc4c4ccccc4c3[nH]2)cc(OC)c1O	119
78	Cc1cc(-c2ccc(/C=c3\sc4nc5ccccc5n4c3=O)o2)c([N+](=O)[O-])cc1C	103
79	CCCNS(=O)(=O)c1c(C)[nH]c(C)c1-c1nc(C2CC2)no1	109
80	NC(=O)CSc1nnc2n(CCC(=O)NC3CCCC3)c(=O)c3ccccc3n12	99
81	O=C(Nc1ccccc1Cl)N1CCN(C(=O)c2nsc3ccccc23)CC1	106
82	N#CC1=CN(c2ccc(Cl)cc2F)c2cc(Cl)ccc2S1(=O)=O	105
83	COc1cc(C2C(C#N)=C(N)Oc3n[nH]c(C)c32)cc(Br)c1OCc1ccccc1 (stereo not given)	101
84	Cc1cc(-c2c(C)sc(C)c2S(=O)(=O)N2CCN(c3ccccc3F)CC2)n[nH]1	102
85	C=CCn1c(SCC(=O)OC(C)(C)C)nc2c(-c3ccccc3)cn(C)c2c1=O	102
86	O=C(Nc1ccccc1C(=O)NN1S(=O)(=O)c2ccccc2S1(=O)=O)c1ccccc1Cl	105
87	Cc1cccc2c1[nH]c1nc(SCC(C)C)nnc12	110
88	COc1ccc(CN=C2Nc3ccccc3NC23CCCCC3)cc1	98
89	O=C(CSc1nnc2ccc(-c3ccccc3)nn12)NCCc1ccccc1	105
90	CCOC(=O)C1=C(C(=O)OCC)SC(=C2C(=S)C(C)(C)N(C(=O)c3cccc(OC)c3)c3ccc(OC)cc32)S1	114
91	CCOC(=O)N1CCN(c2ncnc3c2c(-c2ccccc2)cn3-c2cccc(C)c2)CC1	105
92	Cc1ccc(C#N)c(SCC(=O)c2ccc(C(=O)CSc3nc(C)ccc3C#N)cc2)n1	105
93	COc1ccc(OC)c(C2C(N3C(=O)c4c(Cl)c(Cl)c(Cl)c(Cl)c4C3=O)C(=O)N2c2cccc(Cl)c2C)c1 (stereo not given)	113
94	O=C(CC1(O)C(=O)Nc2ccccc21)c1cc2ccccc2oc1=O (stereo not given)	115
95	COc1ccc(N2C(=O)CSC2c2cccc(Br)c2)c(OC)c1 (stereo not given)	98
96	O=C(c1ccccc1O)N1N=C(C(F)(F)F)CC1(O)c1ccncc1 (stereo not given)	103
97	CCCCOC(=O)COc1ccc2c3c(c(=O)oc2c1)CCCC3	117
98	CCOC(=O)N1CCN(C(=O)c2c[nH]c3ccc(S(=O)(=O)N(C)c4ccc(F)cc4)cc3c2=O)CC1	103
99	O=C(Nc1nnc(SCc2cc(=O)n3ccccc3n2)s1)c1ccccc1Cl	109
100	Cc1ccnc(N2CCCC(C(=O)Nc3ccc(S(N)(=O)=O)cc3)C2)n1 (stereo not given)	106
101	C=CCn1c(SCC(=O)c2ccc(Br)cc2)nc2cc(C(=O)N3CCOCC3)ccc2c1=O	108
102	COc1ccc(N2CCN(S(=O)(=O)c3ccc(F)c(C(=O)Nc4ccc(F)c(F)c4)c3)CC2)cc1	106
103	COc1ccc(C2C(C(=O)OCCOc3ccccc3)=C(C)NC3=C2C(=O)CC(c2cccs2)C3)cc1OC (stereo not given)	110
104	CCc1cc(C2CCCN2C(=O)c2c(Br)cnn2C)on1 (stereo not given)	99
105	O=C1C2=C(C(c3ccccc3)=NCCN2)C(c2ccccc2)N1c1ccccc1 (stereo not given)	121

Molecules from the list above that contain a cyano group, in the order listed:
#	SMILES	GIV Gai3 FP
10	CC(C)(C)OC(=O)N1CC=C2C(C#N)=C(N)C(C#N)(C#N)C(c3ccoc3)C2C1 (stereo not given)	149
63	Cc1onc(-c2ccccc2)c1C(=O)Nc1sc2c(c1C#N)CCC(C)C2 (stereo not given)	108
67	CCOC(=O)C1=C(C)OC(N)=C(C#N)C1c1cccc(C(F)(F)F)c1 (stereo not given)	100
82	N#CC1=CN(c2ccc(Cl)cc2F)c2cc(Cl)ccc2S1(=O)=O	105
83	COc1cc(C2C(C#N)=C(N)Oc3n[nH]c(C)c32)cc(Br)c1OCc1ccccc1 (stereo not given)	101
92	Cc1ccc(C#N)c(SCC(=O)c2ccc(C(=O)CSc3nc(C)ccc3C#N)cc2)n1	105

(listing goes on)
#	SMILES	GIV Gai3 FP
106	O=C1/C(=C/c2ccc(-c3cc(Cl)ccc3Cl)o2)C=C(c2ccccc2)N1c1ccc2ccccc2c1	102
107	CCSc1nnc(-c2nn(C)c3c2CN(C(=O)Nc2ccccc2)CC3)n1CC	99
108	CCc1ccccc1Nc1coc2ccc3c(C)cc(=O)oc3c12	103
109	CCCc1ccc(C#N)c(SCC(=O)Nc2ccc(S(N)(=O)=O)cc2)n1	106
110	COc1ccc(CN2CCCC2c2cc(C)on2)cc1Br (stereo not given)	121
111	COc1ccccc1/C=C1\C(=O)N(c2ccc(C)cc2)C2=C1C(c1ccccc1)N(c1ccc(C)cc1)C2=O (stereo not given)	100
112	O=S(=O)(NC1CCCCCC1)c1cccc2nsnc12	115
113	N#CC1=C(SCC(=O)Nc2ccccc2)N=C(N)/C(=C2/NC(c3ccccc3)=CS2)C12CCCCC2	112
114	Cc1ccc2c(c1)C(c1ccccc1Br)CC(=O)N2 (stereo not given)	107
115	CC(OC(=O)c1cccc(N2C(=O)C3CC=CC(C)C3C2=O)c1)C(=O)c1ccccc1 (stereo not given)	96
116	N#Cc1c(C(F)(F)F)cc(-c2cccs2)nc1SCC(=O)Nc1ccccc1	108
117	CC1CCN(S(=O)(=O)c2ccc(CNC(=O)c3cnccn3)s2)CC1	105
118	COc1ccc2c(c1OC)C(=O)OC2OC(C)=O (stereo not given)	116

Four entries already listed, ordered by number of heavy atoms, rising.
#	SMILES	GIV Gai3 FP
114	Cc1ccc2c(c1)C(c1ccccc1Br)CC(=O)N2 (stereo not given)	107
110	COc1ccc(CN2CCCC2c2cc(C)on2)cc1Br (stereo not given)	121
107	CCSc1nnc(-c2nn(C)c3c2CN(C(=O)Nc2ccccc2)CC3)n1CC	99
113	N#CC1=C(SCC(=O)Nc2ccccc2)N=C(N)/C(=C2/NC(c3ccccc3)=CS2)C12CCCCC2	112

From PubChem
